Marburg entry inh: inhibitors of Marburg virus binding or cell entry. Marburg virus pseudotyped entry inhibition, cell reporter; control for the full effect not named in the record; about a third of the inactives were read at about 46 µM. Potency, µM (doses to about 37.8 µM), for inactives: top-dose activity change, negative = inhibition, usual class: inhibitors. 300,000 tested, 1.8% active. AID 540276; active = well fitted inhibition curve with a large enough effect; inconclusive = small, poorly fitted or top-dose-only effect, or effect the other way; inactive = flat fitted curve, though single readings scatter; tested in HEK293 cells; about a fifth of its hits are not listed in these tables; further: on the % scale 0 is the no-effect control and ±100 the full control effect; luciferase read-out
Cruzain inh noDet: cruzain (T. cruzi) inhibition without detergent; AID 1476; P25779; 200,000 tested, 2.3% active; purified cruzain, Z-FR-AMC fluorescence, no detergent; Potency, µM, without a hit: max response, negative = inhibition, actives largely listed as inhibitors; active means well fitted curve in the direction sought with a large enough effect; inconclusive means small, poorly fitted or top-dose-only effect, or another doubt; inactive means no such curve, though single readings can be large; an effect the other way counts as inactive or inconclusive;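 further: plate controls were enzyme without inhibitor for no effect and buffer without enzyme for full effect; nearly all actives have a fitted effect of over 40% in size; top concentration of the series not given in the record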
Target sequence (P25779 123-467 limits assumed): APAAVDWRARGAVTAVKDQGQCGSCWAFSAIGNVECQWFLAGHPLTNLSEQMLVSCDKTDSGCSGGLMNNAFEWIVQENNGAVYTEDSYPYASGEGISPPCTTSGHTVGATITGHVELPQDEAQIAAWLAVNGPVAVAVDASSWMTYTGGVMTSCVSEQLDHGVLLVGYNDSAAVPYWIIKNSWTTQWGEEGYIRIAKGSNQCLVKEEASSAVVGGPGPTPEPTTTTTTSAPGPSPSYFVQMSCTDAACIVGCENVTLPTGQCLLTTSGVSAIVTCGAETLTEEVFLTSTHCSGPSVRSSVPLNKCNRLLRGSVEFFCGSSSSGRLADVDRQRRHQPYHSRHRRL
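Detergent-free condition (0.00005% Triton X-100) in acetate buffer pH 5.5 with DTT. 1.5 nM enzyme and compound were pre-mixed 15 min, then 2 uM Z-FR-AMC substrate added; reaction progress from fluorescence change between first and third reads (60 s).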
Cruzain inh Det: blocks cruzain activity in presence of Triton detergent | 200,000 tested, 0.43% active | P25779 | purified cruzain, Z-FR-AMC fluorescence, 0.01% Triton | Potency, µM, inactives show max response, negative = inhibition, actives largely listed as inhibitors; active means well fitted curve in the direction sought with a large enough effect; inconclusive means small, poorly fitted or top-dose-only effect, or another doubt; inactive means no such curve, though single readings can be large; an effect the other way counts as inactive or inconclusive;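 further: plate controls were neutral wells for no effect and buffer without enzyme for full effect; nearly all actives have a fitted effect of over 40% in size; top concentration of the series not given in the record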
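Enzyme 1.5 nM, Z-FR-AMC 2 uM, NaOAc 100 mM pH 5.5, DTT 5 mM, Triton X-100 0.01%; 15 min RT compound preincubation; kinetic ex360/em450, 60 s delta.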
2A StopGo: FMDV 2A StopGo reporter, luciferase signal; human cells with a luciferase reporter of 2A StopGo recoding; control for the full effect not named in the record; Potency, µM (series often up to 57.9 µM), without a hit: at the highest dose signal change, negative = less light; 410,000 tested, 1.2% active; active = well fitted falling curve with a large enough effect; inconclusive = small, poorly fitted or top-dose-only effect; inactive = no such curve, though single readings can be large or run the other way; tested in HEK293T cells; further: on the % scale 0 is the no-effect control and ±100 the full control effect; nearly all actives have a fitted effect of over 45% in size; luciferase light after 4 h
SARS PLpro yeast: blocks SARS-CoV papain-like protease in a yeast assay; S. cerevisiae expressing SARS-CoV PLpro, growth rescue; control for the full effect not named in the record; Potency, µM (top dose mostly 32.9 µM), without a hit: top-dose activity, positive = growth rescue; 330,000 tested, 0.19% active; AID 485353; further: 0% is about no effect; nearly all actives have a fitted effect of over 55% in size; growth read by luminescence after 48 h
RE007 growth inh: less growth of the S. pombe RE007 Vpr strain | Potency, µM (top dose mostly 92.2 µM), for the others: at the highest dose activity change, negative = less growth | S. pombe RE007 Vpr strain, BacTiter-Glo ATP luminescence, 24 h; control for the full effect not named in the record | 360,000 tested, 0.21% active; active = well fitted falling curve with a large enough effect; inconclusive = small, poorly fitted or top-dose-only effect; inactive = no such curve, though single readings can be large or run the other way;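 further: on the % scale 0 is the no-effect control and ±100 the full control effect; nearly all actives have a fitted effect of over 50% in size; the assay follows cell death caused by Vpr and the record does not say whether a fall means rescue or toxicity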
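Fission yeast strain RE007, carrying one chromosomally integrated HIV-1 vpr copy, was seeded at OD 0.01 in PMG+AL medium with 23 nL pinned compound. After 24 h at 30 °C and 99% humidity, viability was read by BacTiter-Glo luminescence.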
NS1 inh: inhibitors of influenza NS1 protein function; S. cerevisiae slowed by influenza A NS1, growth recovery by OD600; Potency, µM (highest dose often 46.1 µM), for inactives: at the top dose activity, positive = more growth; 270,000 tested, 0.4% active; further: actives are rising curves; nearly all actives have a fitted effect of over 50% in size
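Growth recovery, yeast-based: influenza A NS1 expressed in S. cerevisiae causes slow growth, and suppressors are detected by OD600. The parent strain without NS1 is used as positive control.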
Lassa entry inh: inhibitors of Lassa virus binding or cell entry. Lassa virus pseudotype entry inhibition, cell reporter; control for the full effect not named in the record. Potency, µM (top dose mostly 37.9 µM), inactives show at the top dose activity change, negative = inhibition, hits mostly inhibitors. 300,000 tested, 1.2% active. AID 540256; active means well fitted inhibition curve with a large enough effect; inconclusive means small, poorly fitted or top-dose-only effect, or effect the other way; inactive means flat fitted curve, though single readings scatter; tested in HEK293 cells; further: on the % scale 0 is the no-effect control and ±100 the full control effect; nearly all actives have a fitted effect of over 50% in size; luciferase read-out
* = called active by the depositor; u = inconclusive; x = no result given; [ ] = dose if it differs, or a comment. Unless noted, the call rests on the fitted dose curve; in most records, active means well fitted rising curve with a large enough effect; inconclusive means small, poorly fitted or top-dose-only effect; inactive means no such curve, though single readings can be large or run the other way. Potency means the concentration at half of the fitted maximal effect. Rows are unselected; about 4.7% have a hit in one of these screens.

SMILES	RE007 growth inh	Cruzain inh noDet	SARS PLpro yeast	Marburg entry inh	NS1 inh	2A StopGo	Lassa entry inh	Cruzain inh Det
CCOc1ccc(Oc2ccccc2NC(=O)CCNC(C)=O)cc1	24%	x	-2%	6%[46.1 µM]	x	-6%	1%	x
CS(=O)(=O)N(CC(=O)N1CCN(Cc2ccccc2)CC1)C1CCCCC1	0%	-4%	5%	0%	3%	-22%	-2%	-3.8%
Cc1cccc(NC(=O)CS(=O)(=O)c2cn(C)c3ccccc23)c1	15%	5%	-15%	x	-14%	-1%	x	2.3%
Cc1cc(OC(C)C)nc(NCc2ccccc2)n1	-2%	0%	1%	-24%	-14%	u	-14%	2.4%
Cc1ccc(Cl)cc1N1CCN(C(=O)Cc2c(C(=O)O)c(C)cn2C)CC1	x	7%	x	x	x	-13%	1%[46.1 µM]	2.1%
COC(=O)c1ccccc1NC(=S)NC(=O)c1ccc2c(c1)OCO2	1%	x	-1%	4%	-17%	6%	19%	x
CSc1cccc(CN2CCN(CCC(C)C)C(CCO)C2)c1 (centres undefined)	-6%	x	1%	u	-2%	-15%	-22%[46.1 µM]	x
COc1ccc(CNC(=O)c2ccc3c(c2)NC(=O)C(CS(=O)(=O)Cc2ccccc2Cl)N3)cc1 (centres undefined)	x	5%	x	x	x	-22%	21%[46.1 µM]	-0.9%
Cc1ccc(-c2nc3cccc(C)n3c2Nc2ccc3c(c2)OCO3)o1	x	-18%	x	u	x	8%	-19%[46.1 µM]	-14%
Cc1ccnc(NC(=O)Cc2c(F)cccc2Cl)c1	4%	x	1%	0%	1%	36%[activator]	3%	x
Cc1cc(C)n(C(C)CC(=O)Nc2ccc(-c3ccno3)cc2)n1 (centres undefined)	-9%	x	-5%	-7%[46.1 µM]	-24%	2%	-2%[46.1 µM]	x
Cc1cccc2sc(N(Cc3cccnc3)C(=O)c3cccs3)nc12	x	7%	x	x	x	-2%	6%[46.1 µM]	-5.2%
CC(C)C(=O)N(Cc1ccc(F)cc1)Cc1nc2ccccc2c(=O)[nH]1	4%	x	2%	u	2%	-3%	-5%	x
COCCNC(=S)Nc1cc(S(=O)(=O)N2CCOCC2)ccc1N1CCCCC1	u	x	-2%	2%[46.1 µM]	x	-24%	u	x
C=CCN(C(=O)c1csnn1)C(C(=O)NC1CCCC1)c1c(F)cccc1Cl (centres undefined)	-12%	x	-2%	5%[46.1 µM]	16%	7%	x	x
CC(NC(=O)Nc1ccc(F)cc1F)c1ccncc1 (centres undefined)	1%[3.69 µM]	-1%	2%	1%	-3%	-6%	-1%	0.8%
CC1CN(S(=O)(=O)c2ccc(C(=O)NN3CCN(C)CC3)cc2)CC(C)O1 (centres undefined)	9%	4%	-2%	1%	10%	41%[activator]	1%	-1.6%
CC/C(C)=N/Nc1nc2sc3c(c2c(=O)[nH]1)CC(C)(C)OC3	-12%	1%	-8%	u	17%	28%	5µM*	-5.8%
Fc1ccccc1-c1n[nH]c(=S)n1CC1CCCO1 (centres undefined)	-7%	x	1%	u	7%	-1%	11%	x
Fc1ccc(N2CCN(c3ncnc4nc[nH]c34)CC2)cc1	1%	11%	-6%	x	-2%	-15%	x	3.9%
Cc1ccc(NC(=O)Cn2cc(C(=O)C3CCCCC3)c3ccccc32)c(C)c1	x	-16%	x	u	x	-18%	-8%[46.1 µM]	-5.0%
O=C(OCC(=O)N1CCc2ccccc2C1)c1ccc(F)cc1Cl	3%	x	-3%	15%	x	54%[activator]	2%	x
COc1ccc(/C(C)=N\O)cc1OC	-5%	x	1%	10%[46.1 µM]	3%	-5%	11%	x
CC(C)c1ccc(NC(=O)CN2C(=O)NC3(CCCC3)C2=O)cc1	1%	x	3.5µM*	14%[46.1 µM]	18%	13%	-13%[46.1 µM]	x
CCc1ccc(C2C(C#N)=C(N)SC(N)=C2C#N)s1	-2%	16µM*	-2%	-5%	u	-8%	x	-27%
COC(=O)c1cc(OC)cc(O)c1C(=O)c1c(O)cc(C)cc1O	4%	x	1%	x	10%	-24%	x	x
O=C(Cn1cc(C(=O)c2ccco2)c2ccccc21)Nc1ccccc1Cl	x	-30%	x	8%[46.1 µM]	x	-29%	23%[46.1 µM]	-6.7%
COC(=O)[C@@H]1CC[C@H](C)[C@@H](c2ccc(C)cc2)N1C(=O)c1ccc(/C=N/OC[C@@H](O)[C@H]2O[C@@H]3OC(C)(C)O[C@@H]3[C@H]2O)cc1	x	u	-4%	28%[14.2 µM]	-65%	x	u	-5.4%
COC(=O)CN(c1ccccc1F)S(=O)(=O)c1ccc(C)cc1	4%	x	1%	-18%[46.1 µM]	2%	-2%	2%	x
Cc1cc(C)c2[nH]c(=O)c(CN(Cc3ccco3)C(=O)c3cccs3)cc2c1	x	-8%	0%	-4%	27%	x	x	-6.3%
Cn1c(C(=O)NCCCN2CCN(c3cccc(Cl)c3)CC2)cc2c(=O)n(C)c3ccccc3c21	-11%	-19%	1%	x	-76%	u	x	-28%
CC1(c2ccc(Cl)cc2Cl)NC(=O)N(CC(=O)N2CCN(C(=O)c3ccco3)CC2)C1=O (centres undefined)	-3%	x	1%	u	x	-22%	11%	x
COc1ccc(NC(=O)CN2CCc3ccccc3C2)cc1S(=O)(=O)N1CCOCC1	3%	5%	11%	11%	-5%	16%	u	3.4%
COc1ccccc1NC(=O)C1=C(C)Nc2ncnn2C1c1cccs1 (centres undefined)	6%	3%	4%	1%	-6%	-9%	-6%	0.1%
NS(=O)(=O)c1ccc(N=Nc2c(O)[nH]c(=S)[nH]c2=O)cc1	12%	x	0%	x	-3%	-1%	x	x
COc1ccc(C(=O)NCCCc2nc3ccccc3n2Cc2ccccc2C)cc1OC	4%	u	5%	-7%	-82%	-40%	-20%	-0.9%
CCc1nn2c(=O)cc(COC(=O)c3ccco3)nc2s1	x	-2%	x	x	x	17%	u	1.3%
O=C(COC(=O)Cc1ccc(Cl)cc1Cl)Nc1ccc(OC(F)F)cc1	0%	-8%	-26%	14%	-16%	-10%	2%	-5.5%
C[C@@H](NC(=O)C1(c2ccccc2)CCN(C(=O)OC(C)(C)C)CC1)C(=O)N[C@@H](Cc1ccccc1)C(=O)O	-14%	x	0%	x	16%	-17%	x	x
CC(C)OCCCn1c(=NC(=O)c2ccncc2)c(C#N)cc2c(=O)n3ccccc3nc21	4%	u	6%	-3%	9%	-21%	10%	u
CCOc1ccc(-c2cc(C(=O)NCCc3ccccc3)c3c(-c4ccc(C)cc4)[nH]nc3n2)cc1	x	3%	x	x	x	33%[activator]	-1%[46.1 µM]	-0.1%
S=C(NCCCn1ccnc1)Nc1ccc(Cl)cc1Cl	-13%	x	0%	5%[46.1 µM]	11%	-1%	0%	x
CSc1ccc(CNc2cccc3ccccc23)cc1	-9%	4%	-3%	u	-6%	x	u	-9.6%
Cc1cccc(N2CCN(S(=O)(=O)c3c(C)[nH]c(C)c3C(=O)N3CCCC3)CC2)c1C	7%	x	4%	x	-4%	35%[activator]	x	x
Cc1ccc(NC2=NC(c3ccc(O)cc3)n3c(nc(C)cc3=O)N2)cc1 (centres undefined)	-14%	-12%	2%	-3%	u	0%	-4%	-6.3%
Cc1nn(S(=O)(=O)c2cccs2)c(C)c1Sc1ccc([N+](=O)[O-])cc1	11%	12%	0%	-13%[46.1 µM]	9%	14µM*	u	-5.7%
CC(=O)Nc1sc2c(c1-c1nc3ccccc3s1)CCN(C(C)C)C2	-3%	x	4%	x	-5%	-10%	x	x
CCOC(=O)C1CCN(c2c(C(=O)c3ccc(OC)cc3)cnc3ccccc23)CC1	x	32%	x	-6%[46.1 µM]	x	-9%	x	1.1%
C=CCN(CC=C)C(=O)Nc1ccc(OCC)cc1	-5%	x	-1%	29%[46.1 µM]	-4%	20%	2%	x
CCCn1cc(CN2CCC(N3CCC(C(=O)N4CCOCC4)CC3)CC2)c(C)n1	-7%	x	0%	3%[46.1 µM]	-1%	-21%	-3%	x

Further entries follow:
SMILES	RE007 growth inh	Cruzain inh noDet	SARS PLpro yeast	Marburg entry inh	NS1 inh	2A StopGo	Lassa entry inh	Cruzain inh Det
COc1ccc(-n2cnc(=S)[nH]c2=S)cc1	-13%	x	x	u	x	25%	2%[46.1 µM]	x
C[N+](C)(C)CCCN(Cc1ccc2c(c1)OCO2)C(=O)NC1CCCCC1	-11%	x	0%	x	2%	-7%	x	x
O=C(c1ccccc1)C(Nc1cccc([N+](=O)[O-])c1)c1ccccc1 (centres undefined)	-7%	x	x	u	x	-21%	-14%[46.1 µM]	x
NC(=O)c1ccc(NC(=O)COC(=O)c2ccc3c(c2)OCCO3)cc1	-15%	x	2%	3%[46.1 µM]	6%	5%	8%	x
CC(C)NS(=O)(=O)c1ccc(OCC(=O)N2CCCC2)cc1	-10%	0%	-1%	9%	4%	x	4%	3.0%
CCOc1ccc(/C=C2/Sc3ccc(C(=O)NCC4CCCO4)cc3N(C)C2=O)cc1OC (centres undefined)	0%	x	u	x	8%	u	x	x
Cc1cc(C)nc(-n2nc(C)cc2NC(=O)CNC2CCCCC2)n1	-15%	0%	1%	-6%	-4%	-20%	-20%	2.2%
COc1ccc(C(=O)Nn2cnnc2)cc1OC	0%	x	0%	9%[46.1 µM]	2%	16%	12%[46.1 µM]	x
Cc1c(C(=O)Nc2cccc(Cl)c2)oc2ccc(S(=O)(=O)N3CCOCC3)cc12	x	-2%	x	x	x	-7%	-17%[46.1 µM]	-0.2%
O=C(Cc1ccccc1)Nn1cnc2ccccc21	12%	6%	-2%	8%	-3%	x	-1%	-1.8%
O=c1c2ccccc2ncn1CCCSc1ccc(Cl)cc1	-26%	2%	-6%	19%	-88%	0%	12%	-2.0%
CC(c1ccccc1)n1c(-c2ccccc2F)n[nH]c1=S (centres undefined)	5%	x	17%	-29%[46.1 µM]	6%	-11%	u	x
CCCCn1c(N2CCCC2)nc2c1c(=O)[nH]c(=O)n2C	-15%	x	0%	u	4%	-4%	-6%[46.1 µM]	x
